Assay outcomes as filed in PubChem.
Beta cell apopt: blocks beta cell apoptosis; protection from apoptosis, % (no concentration beside the values); AID 435005; INS-1E cytokine-induced death, ATP luminescence, 48 h; percent of positive-control rescue, neutral wells zero; hit rate 0.8% among 300,000;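 active = all replicates at 75% or more, or half of them and the mean; inconclusive = half reach 75% but not the mean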;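 also: 0% = cytokine-treated negative control wells and 100% = positive control rescue; higher means more ATP so stronger rescue from cytokine killing; wells of about 40 µL received 100 nL stock; the first replicate is given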
T cruzi inh: T. cruzi replication inhibition. hit rate 1.4% among 300,000. inhibition, % (test concentration not listed). T. cruzi beta-gal in NIH3T3, luminescence, 90 h;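 active = mean inhibition across valid replicates above about 55%, limit read from the data; inconclusive = mean below that limit but half or more replicates reach it; inactive = mean below it, under half of replicates reach it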;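 also: signal also drops with host cell toxicity which is not excluded here; 0% = plate median of DMSO wells and 100% = zero luminescence signal; higher percent means less beta-gal luminescence so fewer parasites; stock transfer was 50 nL into about 50 µL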
A1 inh: inhibitors of the anti-apoptotic protein A1, read as caspase activation; hit rate 0.066% among 330,000; caspase activation, % (no concentration beside the values); MEF A1-2A-BIM cells, Caspase-Glo 3/7 luminescence, 3 h; percent of clofoctol response, vehicle zero;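 active = over half of replicate activation scores above 10%, or exactly half above 10 with the replicate mean above 10; inconclusive = replicate mean below 10 yet half the replicates above 10; inactive = over half of replicates below 10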;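 also: wells of about 30 µL received 50 nL stock; many hits fall short of the cut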
RanGTP-Impb inh: inhibitors of RanGTP-importin-beta interaction, primary screen, biochemical, FRET, CFP-Ran, YFP-importin-beta, homogeneous; inhibition, % (no concentration beside the values); hit rate 1.1% among 300,000; cell-free CFP-Ran/YFP-importin-beta FRET ratio;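 active = most replicates above 15%; inconclusive = exactly half above 15%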;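 also: 0% = DMSO wells and 100% = Ran loaded with GDP instead of GTP; wells of about 40 µL received 100 nL stock; the first replicate is given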
LANA-H2B inh: blocks KSHV LANA binding to histone H2A/H2B. Q9QR71. cell-free LANA-H2A/H2B peptide, fluorescence polarization. inhibition, % (no concentration beside the values). hit rate 0.6% among 320,000; in the data active = inhibition mostly above about 10%, no sharp cut-off; inactive = mostly below about 6.7%;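 also: stock transfer was 7.5 nL into about 10 µL; 0% = median of vehicle wells and 100% = median of positive control wells; one replicate is shown; the record names a cut of 25% in any replicate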
Target sequence (Q9QR71 whole entry, looked up): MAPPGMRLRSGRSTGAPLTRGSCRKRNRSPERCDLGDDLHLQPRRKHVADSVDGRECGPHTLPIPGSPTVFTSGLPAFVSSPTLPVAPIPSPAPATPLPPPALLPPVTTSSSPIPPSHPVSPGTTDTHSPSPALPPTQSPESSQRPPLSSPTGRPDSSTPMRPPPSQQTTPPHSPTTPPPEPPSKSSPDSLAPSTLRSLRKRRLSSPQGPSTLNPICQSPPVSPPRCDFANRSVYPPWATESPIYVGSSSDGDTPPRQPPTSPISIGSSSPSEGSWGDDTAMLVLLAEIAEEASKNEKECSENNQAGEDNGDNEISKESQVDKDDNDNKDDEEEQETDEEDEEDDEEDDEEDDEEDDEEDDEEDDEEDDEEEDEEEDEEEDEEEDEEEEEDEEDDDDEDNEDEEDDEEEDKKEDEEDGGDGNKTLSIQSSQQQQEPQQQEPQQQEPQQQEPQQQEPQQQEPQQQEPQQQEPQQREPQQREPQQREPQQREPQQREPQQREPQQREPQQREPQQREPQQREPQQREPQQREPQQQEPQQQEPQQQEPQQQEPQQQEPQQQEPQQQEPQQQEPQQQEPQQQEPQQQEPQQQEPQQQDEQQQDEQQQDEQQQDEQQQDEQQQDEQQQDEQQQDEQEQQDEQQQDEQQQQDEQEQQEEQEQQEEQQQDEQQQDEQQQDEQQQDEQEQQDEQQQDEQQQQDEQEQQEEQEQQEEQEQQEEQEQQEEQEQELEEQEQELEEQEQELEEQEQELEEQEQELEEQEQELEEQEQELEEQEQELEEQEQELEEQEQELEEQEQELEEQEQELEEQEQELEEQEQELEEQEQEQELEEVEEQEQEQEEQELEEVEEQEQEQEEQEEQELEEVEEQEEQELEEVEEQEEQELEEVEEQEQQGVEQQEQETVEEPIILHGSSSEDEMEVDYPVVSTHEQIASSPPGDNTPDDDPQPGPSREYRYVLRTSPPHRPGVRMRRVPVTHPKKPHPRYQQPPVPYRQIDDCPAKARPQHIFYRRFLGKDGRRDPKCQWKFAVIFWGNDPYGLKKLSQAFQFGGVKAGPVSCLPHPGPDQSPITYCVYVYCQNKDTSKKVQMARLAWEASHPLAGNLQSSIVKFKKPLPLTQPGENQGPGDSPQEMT
B2AR ag: agonists of human beta-2 adrenergic receptor inducing internalization; P07550; response, % (no concentration beside the values); hit rate 0.43% among 340,000; Am2.2-beta2AR cells, FAP receptor internalization, flow cytometry; reference of the scale not given here;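 active = response above a set limit, near 3 SD of response in nonfluorescent compounds, cut at about 42% in these data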;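 also: stock transfer was 100 nL into about 11 µL; a reference agonist was the positive control; negative values mostly stem from fluorescent compounds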
UCH37 inh: human UCH37 deubiquitinating enzyme inhibition; Q9Y5K5; purified proteasome/UCH37, Ub-AMC cleavage fluorescence; inhibition, % (no concentration beside the values); hit rate 0.33% among 330,000; AID 588478;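 active = mean of two replicates above 20%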;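 also: 0% = compound-free wells with enzyme and 100% = wells lacking proteasome; stock transfer was 100 nL into about 20 µL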
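Reagent: Ub-AMC substrate; assay system: Proteasome-associated human UCH37 deubiquitinase; controls: no-proteasome and no-compound wells; read-out: % inhibition of Ub-AMC cleavage fluorescence; timing: 30 min preincubation with enzyme, 25 min cleavage at room temperature; signal: AMC fluorescence from Ub-AMC cleavage, excitation 355 nm, emission 460 nm; buffer or medium: Tris-HCl pH 7.4 plus ovalbumin, ATP-MgCl2, DTT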
Calb FLC: affects C. albicans growth with fluconazole; hit rate 0.57% among 300,000; growth inhibition, % (no concentration beside the values); C. albicans CaCi-2 (fluconazole-resistant clinical isolate) + fluconazole, Alamar Blue growth, 48 h; AID 1979;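 active = most replicates above 75%; inconclusive = exactly half above 75%; inactive = most below 75%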;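 also: all wells also contain fluconazole at 8 µg/ml as a sub-toxic cotreatment; 0% = median of DMSO wells and 100% = median of geldanamycin control wells; wells of about 8 µL received 7.5 nL stock; the first replicate is given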
* marks the source's active call; other numbers are inactive results; u = inconclusive; x = no result given.

molecule,Beta cell apopt,T cruzi inh,A1 inh,RanGTP-Impb inh,LANA-H2B inh,B2AR ag,UCH37 inh,Calb FLC
Cc1ccc(S(=O)(=O)NC2=NCCC2)cc1,-17,-6,-0.1,2.2,-0.8,4,1.5,-5
CCSc1ccc(-c2ccco2)nn1,-8,11,1.0,0.9,-1.9,5,0.8,-4
CCN(c1cccc(C)c1)S(=O)(=O)c1ccc2[nH]c(=O)c(=O)[nH]c2c1,1,-5,1.9,-3.0,8.5,5,-0.8,23
COc1cc2c(cc1OC)C(c1ccccc1)N(C(=O)c1ccccc1F)CC2 (stereo not given),0,9,-0.1,1.9,-4.1,1,6.6,1
Cc1c(S(=O)(=O)N(C)C2CCCCC2)c(=O)n(C)c(=O)n1C,x,-11,0.8,-1.9,-1.5,-3,3.7,-2
O=C(O)C1CC(O)CN1S(=O)(=O)c1cccs1 (stereo not given),-1,-22,-0.2,0.9,-3.6,5,2.3,2
O=C(c1ccco1)c1cn(CC(=O)N2CCCCCC2)c2ccccc12,-3,4,2.3,u,-3.1,-6,x,-4
Fc1ccc(Cn2nnc(-c3ccc(Cl)cc3)n2)cc1,-2,-6,-0.4,3.9,-3.5,-4,-3.0,3
CC(C)[C@H](NC(N)=O)C(=O)NCCc1ccc(Cl)cc1Cl,1,-3,-0.3,-0.3,-3.6,-9,-0.8,1
Cc1[nH]c(C)c2c(=O)n(Cc3ccc(Cl)cc3)ncc12,-9,-17,0.7,3.0,2.8,-3,2.3,-2
CC1(C)Cc2nc3sc4c(=O)n(CC(=O)NCc5ccco5)cnc4c3cc2CO1,-5,-7,0.8,3.1,2.9,-10,-3.3,1
COc1ccccc1NC(=O)CN1CCN(CC(=O)Nc2ccc3c(c2)OCCO3)CC1,2,x,0.3,x,0.7,-3,4.2,x
Cc1ccc(-n2c(C)cc(/C=N/Nc3ccc([N+](=O)[O-])cn3)c2C)c(C)c1,-7,52,0.0,-2.0,-5.0,-1,x,-1
CCOc1ccc(/C=C2/Sc3ccc(C(=O)N4CCOCC4)cc3N(C)C2=O)cc1OC,2,-1,0.5,1.5,2.8,2,1.9,19
Cc1cc(C)cc(NS(=O)(=O)c2ccc3c(c2)C(C)(C)C(=O)N3C)c1,3,-24,0.2,-2.6,11*,1,6.6,-6
O=C(CCCCCCC(=O)c1ccccc1)c1ccccc1,0,11,0.9,-2.0,2.3,14,2.1,u
CCN1CCCC(OC(=O)Nc2ccccc2)C1 (stereo not given),-3,7,0.3,7.8,-3.7,14,0.8,-4
Cn1cc(CN2CCC(Oc3ccc(C(=O)N4CCCC4)cc3)CC2)cn1,-6,10,0.0,0.3,-0.1,-1,0.4,-3
COc1ccc(/C=C(/NC(=O)/C=C/c2ccccc2)C(=O)N2CCOCC2)cc1,-6,-7,0.8,3.7,6.1,5,8.2,5
O=C(CNCc1ccc(F)cc1)Nc1ccc(S(=O)(=O)N2CCOCC2)cc1,5,-10,-0.3,0.0,-1.2,5,5.5,13
N#C/C(=C/c1ccco1)C(N)=S,-2,x,-0.7,-1.1,0.7,1,11,-23
CCCCn1c(N)c(N(CC(C)C)C(=O)CCNC(=O)c2ccc(Br)cc2)c(=O)[nH]c1=O,-1,-5,0.9,-0.3,5.1,-10,-2.4,x
CN1CCn2c1nc(N1CCOCC1)nc2=O,3,-17,-0.2,-3.6,-0.4,-4,-0.1,7
CC(C)C(c1nnnn1Cc1ccco1)N1CCN(c2nc3ccccc3s2)CC1 (stereo not given),4,-2,-0.7,3.4,-11,11,1.5,2
CC(C)N1C(=O)CCC1C(=O)NCc1ccc(F)cc1Cl (stereo not given),-10,-9,0.4,5.1,6.0,-6,1.8,16
CC(C)NC(=O)NC(=O)CSc1ncccn1,0,2,0.3,-0.8,-0.3,-5,2.4,2
CCc1nc2sc3c(Cl)ncnc3c2c2c1CCCC2,-10,-2,0.7,u,-0.4,x,-1.3,0
COc1cc(OC)cc(C(=O)NCC(=O)OCC(=O)Nc2ncc(Cl)cc2Cl)c1,-2,6,0.3,-3.1,-4.0,11,-1.1,2
Cc1ccc2c(c1)c1ncn(CCC3=CCCCC3)c(=O)c1n2C,0,26,-1.0,3.1,-2.7,-5,-24,u
CCOC(=O)C1CCN(C(=O)CCc2c(C)nc3ncnn3c2C)CC1,4,-2,0.7,-0.7,2.8,0,1.1,-14
CC1CCCCC12NC(=O)N(CC(=O)NCc1ccc3c(c1)OCO3)C2=O (stereo not given),x,-28,-0.1,2.4,-2.2,1,3.8,-4
O=C(COc1ccccc1[N+](=O)[O-])N/N=C/c1ccc[nH]1,x,-4,-0.5,-3.4,-5.2,-7,x,-2
Cn1c(SCC(=O)c2ccccc2)nnc1-c1ccncc1,2,-6,-0.8,1.6,-4.8,-2,-0.1,-16
CCOC(=O)N1CCN(S(=O)(=O)c2cccc3cccnc23)CC1,-6,-20,0.4,-6.8,-2.1,2,-4.2,-8
CCOc1ccc(Nc2nc(N3CCCC3)nc(N3CCN(c4ccc(OC)cc4)CC3)n2)cc1,22,61*,-0.5,0.5,0.8,5,0.4,3
CC(C)Sc1nc2c(c(=O)n(C)c(=O)n2C)n1C,-1,-8,-0.6,5.2,-0.4,3,0.9,14
CCn1cc(C(=O)N2CCc3ccccc32)c(=O)c2cc(S(=O)(=O)N3CCCC3)ccc21,-6,-8,0.6,3.5,5.0,-6,5.3,6
Cc1noc(C(=O)NCC2CCCO2)c1Cl (stereo not given),-5,-8,0.6,23*,0.8,3,-1.2,-14
O=C(/C=C/c1cccc([N+](=O)[O-])c1)OC1CCCCC1=O (stereo not given),-6,-23,-0.2,0.8,-5.1,3,5.4,u
CNC(=S)/N=C/NOCc1c(Cl)cccc1Cl,28,33,0.2,5.0,-0.1,8,x,u
O=C(c1cc(C2CC2)nc2ccc(Br)cc12)N1N=C(C(F)F)CC1(O)C(F)F (stereo not given),-7,-5,-0.7,0.7,-3.3,13,3.4,0
COc1ccc(-c2cc(C(F)(F)F)c(C#N)c(SCC(=O)Nc3ccccc3C#N)n2)cc1,14,-7,-0.1,3.6,-1.5,x,-25,0
CCOc1ccc(NC(=O)COC(=O)CCS(=O)(=O)c2ccc(C)cc2)cc1,-4,-2,0.3,0.7,-8.4,4,3.2,-14
COC(=O)c1cc(C#N)c(Oc2ccccc2OC)nc1C,-2,5,-0.6,0.7,2.8,-3,0.3,-15
O=c1c2c3c(sc2nc(NCCO)n1CCc1ccccc1)CCCCC3,-4,46,0.7,3.9,2.5,-2,-0.7,-31
COc1ccc(NC(=O)C(F)(F)F)cc1OC,x,6,0.2,-3.0,-0.8,-8,3.8,-1
CN(CCC1CCOCC1)Cc1cn[nH]c1-c1ccc(-c2ccccc2)cc1,-8,17,0.3,1.0,-0.7,-2,4.5,-1
Cc1ccc(S(=O)(=O)N(CC(=O)N2CCC(C)CC2)Cc2ccccc2F)cc1,0,35,0.1,1.4,-0.3,-1,-0.1,0
Cc1ccc(N2C(=O)CCC2=O)c(C)c1,-9,-1,0.0,-3.4,-3.5,-1,2.8,-2
O=C(OCc1c(F)cccc1Cl)c1cnc(Cl)c(Cl)c1,1,-8,1.1,0.4,-2.6,6,0.4,18
CCCCCC1CCC(C(=O)O)CC1 (stereo not given),-1,0,-0.5,6.6,1.7,4,1.4,31
CC(C)c1ccc(Nc2nnc(SCC(=O)c3nnc(-c4ccccc4)o3)s2)cc1,3,x,0.3,x,-16,-4,1.9,x
COc1ccc(C(C[N+](=O)[O-])C2(c3ccc(OC)c(OC)c3)C(=O)c3ccccc3C2=O)cc1 (stereo not given),-2,9,-5.4,0.4,-7.6,51*,x,-6
CCCNC(=O)Cc1c(O)c2ccccc2[nH]c1=O,1,-5,0.2,0.8,-4.3,-1,1.2,17
CCC/C(C)=C/c1ccc(CC)cn1,-7,0,-0.7,-0.8,-0.2,-6,2.3,-3
Cc1ccc(-n2nc(C)cc2Nc2ncc(Cl)cc2Cl)cc1,-3,5,-0.5,1.7,2.4,-6,5.1,12
Cc1ccc(OCC(=O)NN=C2c3ccccc3-c3ccccc32)cc1,-2,1,0.6,u,-5.4,7,-11,-4
COc1ccc2c(c1)CCC/C2=N/OC(=O)c1ccccc1OC,-11,-1,-0.3,2.9,1.8,9,x,6
Cc1ccn2c(C(=O)N/N=C/c3ccc(Cl)cc3)c(C)nc2c1,x,-2,x,-1.3,x,4,x,0
COc1cc(OC)cc(C(=O)N[C@H](C(=O)Nc2nc(-c3ccc(F)c(F)c3)cs2)C(C)C)c1,2,19,0.7,1.8,1.4,-5,1.7,5

(next part)
molecule,Beta cell apopt,T cruzi inh,A1 inh,RanGTP-Impb inh,LANA-H2B inh,B2AR ag,UCH37 inh,Calb FLC
CC(C)OCCCNC(=O)c1ccccc1NC(=O)C1=CSCCO1,-7,6,0.0,2.7,4.2,-10,1.6,-10
COc1ccc(/C=C(\NC(=O)c2ccc(C)cc2)C(=O)NCC2CCCO2)cc1 (stereo not given),-1,1,0.2,5.6,-1.9,-3,6.5,-35
CN1N=C(/C=C/c2ccccc2)CCC1=O,21,-8,-5.1,1.0,4.5,-7,2.9,1
CCOC(=O)Cn1c(=N)n(CCOc2ccc(F)cc2)c2ccccc21,-3,-18,-0.2,-1.6,-9.4,4,3.2,-12
CCc1ccccc1NC(=O)c1cc(-c2ccc3c(c2)OCO3)on1,0,-6,-3.1,1.4,-4.2,4,-2.8,0
CC(C)(C)c1cc(NC(=O)CSc2nnc(N)s2)n(-c2ccccc2)n1,1,-4,1.0,-1.5,7.6,3,3.3,-4
Cc1cc(N2CCCC(C(=O)Nc3ccc4c(c3)CCC4)C2)n2ncnc2n1 (stereo not given),8,1,-0.8,3.0,-6.9,-17,2.8,10
CC1CCN(C(=O)CSc2nnc(-c3cccnc3)n2C2CCCCC2)CC1,-8,-7,-0.1,-3.1,-3.5,0,-0.4,7
OCC1=C[C@@H](O)C2C=CO[C@@H](O[C@@H]3O[C@H](CO)[C@@H](O)[C@H](O)[C@H]3O)C12 (stereo not given in full),-6,x,0.5,x,3.0,12,-0.5,x
Cc1ccc(OCCNC(=O)c2ccccc2O)cc1,-3,4,-0.9,0.6,-5.0,0,-12,1
COc1ccc(CC(=O)N/N=C/c2sccc2C)cc1,-4,-8,-0.3,2.3,-0.5,5,x,-2
S=C(Nc1ccc(OCc2ccccc2)cc1)Nc1cccc(Cl)c1Cl,1,-5,0.7,-4.1,2.7,13,3.8,-22
COC(=O)Cn1c(C)nc([N+](=O)[O-])c1Br,2,-2,-0.8,1.5,-1.9,2,3.2,11
Cc1oc(-c2ccccc2)nc1CS(=O)CC(=O)O (stereo not given),-3,-14,-0.2,u,0.6,-6,8.9,-3
COc1ccc(OC)c(CNC(=O)CCCn2ccc3cc(S(=O)(=O)N4CCCC4)ccc32)c1,-3,11,-0.7,3.3,4.2,5,-1.2,0
